NPYLR7 agonist: mosquito NPYLR7 agonism; hit rate 0.15% among 270,000; activation, % at 10 µM; HEK293T NPYLR7/Galpha15, GCaMP6s calcium fluorescence; in the data active = activation above about 40%;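 also: 0% = vehicle and 100% = reference agonist at the receptor; some compounds past the cut are filed as inactive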
NPYLR7 agonist max-min: further read-out of NPYLR7 agonist, marked with its call; activation, %; measured here: Max-Min RFU normalised activation; some inactives read as strong as hits;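 span of the calcium signal over five minutes; 0% = vehicle and 100% = native peptide agonist; compound fluorescence can raise it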
The depositor's hits bear a star; & = joins results of further samples. Not all compounds are listed, so the mix of outcomes need not match the whole.

SMILES | NPYLR7 agonist | NPYLR7 agonist max-min
COc1ccc(NC(=O)C2(C)CCN2C(=O)c2ccc(C(C)(C)C)cc2)cc1OC (stereo not given) | 0 | -2
Cc1nc2scc(C)n2c(=O)c1NC(=O)C1CC1 | 33 | 27
COc1ccc(NC2CCCN(CC(=O)NCc3cccs3)C2)cc1 (stereo not given) | 3 | 1
CCN(CC)CCNS(=O)(=O)c1ccc(F)c(F)c1F | 4 | 26
CCn1c(C2CCN(C(=O)COc3ccc4c(c3)OCO4)CC2)n[nH]c1=O | 22 | 14
CC1CN(C)CCN1C(=O)CS(=O)(=O)c1ccc(Cl)cc1 (stereo not given) | 6 | 2
O=C(c1cc(-c2ccc(Cl)s2)nc2ccccc12)N1CCN(Cc2ccccc2)CC1 | 5 | 3
O=S(=O)(Nc1cc(F)ccc1F)c1cc(Cl)ccc1Cl | -3 | -5
CC(=O)N1CC2(CC(=O)OC(C)C)CN(C(C)=O)CC(CC(=O)OC(C)C)(C1)C2=O | 11 | 7
CC(C)(C(=O)N1CCC1(C)C(=O)NC1Cc2ccccc2C1)c1ccccc1 (stereo not given) | 10 | 10
COn1c(=O)c(-c2cccc(C(F)(F)F)c2)[n+]([O-])c2ccccc21 | 4 | 3
Nc1c(Cl)cc(Cl)c2c1C(=O)c1ccccc1C2=O | 1 | 0
CCSc1nc(C(F)(F)F)cc(C)c1C#N | -3 | -1
COc1ccc(S(=O)(=O)Oc2ccccc2CN(CCN(C)C)C(=O)Nc2ccccc2OC)cc1 | 11 | 19
CO[C@H]1[C@H](NC(=O)Cc2ccccc2)c2ccccc2C12CCN(C(=O)c1ccc3cc[nH]c3c1)CC2 | 13 | 2
CC(=O)c1ccc(S(=O)(=O)N2CCCC(C(=O)c3ccc4c5c(cccc35)CC4)C2)cc1 (stereo not given) | 16 | 6
COc1ccc(-c2nc(OC(C)C)nn2-c2ccc(NC(=O)c3cccc([N+](=O)[O-])c3)cc2)cc1 | 32 | 24
O=c1[nH]c(=O)n(Cc2noc(-c3ccc(Cl)cc3)n2)cc1Cl | -4 | -5
CCOc1ccc(OCC)c(S(=O)(=O)NCCn2ncccc2=O)c1 | 4 | 1
Cc1ccc(-n2ncc3c(C4CC4)n[nH]c(=O)c32)cc1C | -2 | -3
COc1ccc(S(=O)(=O)Nc2ccc3c(c2)N(C(=O)c2ccccc2)CCC3)cc1 | -6 | 1
CC(=O)N1CCC(C(=O)N(C)C(C)Cc2ccccn2)CC1 (stereo not given) | -3 | -4
CN(Cc1ccc(Cl)cc1)S(=O)(=O)CCN1C(=O)c2ccccc2C1=O | -1 | -1
CC(C)c1cccc(-c2ccc3nnc(-c4ccncc4)n3c2)c1 | -5 | -10
CC(O)CNC(=O)c1cc2c(=O)n(C)c(=O)n(C)c2n1Cc1ccco1 (stereo not given) | 3 | 3
COc1ccc(-n2nnc3c(=O)n(CC(C)=O)cnc32)cc1OC | 0 | -8
Cc1cc(NC(=O)N2CCCC2)ccc1N1CCSCC1 | 6 | 2
COc1ccc(C2CC(=O)C3=C(C2)N=C(C)C(C#N)C3c2ccccc2Cl)cc1 (stereo not given) | 0 | 1
Cc1cccc(C(=O)N2C(C(=O)N3CCCC3)COC23CCN(C(=O)c2ccc(Cl)c(Cl)c2)CC3)c1 (stereo not given) | -1 | -1
O=C(C=Cc1ccco1)Nc1sc2c(c1C(=O)O)CCCCC2 | 19 | 12
CCN(C)c1ccc(CNS(=O)(=O)CC2CCCO2)cc1F (stereo not given) | 2 | 1
N#CCc1ccc(NC(=O)c2ccc(C(=O)c3ccccc3)cc2)cc1 | -1 | -5
CCOC(=O)C1CCN(C(=O)c2cccc(CSc3nc(C)c(C)c(N(CC)CC)n3)c2)CC1 | -6 | 1
Cc1nc(-c2ccncc2)[nH]c(=O)c1CC(=O)N(C)C1CCCCCCC1 | 2 | 1
O=C(CSc1ccc2nnc(-c3cccnc3)n2n1)Nc1nc2ccccc2s1 | -1 | -2
CCCn1c(=O)c2ccccc2n(Cc2ccc(C(=O)NCc3cccc(C(F)(F)F)c3)cc2)c1=O | -1 | 2
CC(=O)Nc1nc(CN2CCCC2c2ccc(C)c(C)c2)cs1 (stereo not given) | 4 | 2
COc1ccccc1NC(=O)c1cc(=O)c(OC)c[nH]1 | -1 | -3
O=C(CCCc1ccccc1)Nc1ccnn1C1CCN(C(=O)c2ccccn2)CC1 | 1&-5 | -2&-7
CCC(C(=O)N1CCN(C(=O)c2cn(C)cc3c(=O)n(-c4ccccc4)nc2-3)CC1)c1ccccc1 (stereo not given) | 0 | -2
CNc1ccccc1C(=O)Nc1cccc(NC(=O)Cc2ccccc2)c1 | 21 | 13
COCCN1C(=O)N(Cc2cccnc2)C(=O)C12CCN(Cc1c(F)cccc1Cl)CC2 | 18 | 5
CON(C)C(=O)C(C)(C)NC(=O)OC(C)(C)C | 13 | 11
CC1(C(=O)NCCCN2CCCC2=O)CCN1C1Cc2ccccc2C1 (stereo not given) | 11 | 6
COc1cc2c(cc1OC)C(CNC(=O)C1CC1)N(C(=O)NC(C)(C)C)CC2 (stereo not given) | -2 | 3
CN(CCOc1ccccc1)C1=NS(=O)(=O)c2ccccc21 | -5 | -6
Nc1cc(-c2cccc(Cl)c2)nn1-c1ccc(C(=O)NCc2cccs2)cc1 | -7 | -11
COc1ccc(C(=O)OC2CCOC2=O)c(OC)c1 (stereo not given) | 0 | 0
Clc1cccc(Cl)c1C1Nc2cccc3cccc(c23)N1 | -3 | -3
COC(=O)c1cc(C[C@H]2CNCC[C@H]2CC(=O)NCCN2CCOCC2)no1 | -7 | -11
CC1CCN(c2nc(-c3ccccc3)nc3c2CN(C(=O)NCc2ccccc2)CC3)CC1 | 20 | 11
CCOC(=O)CN1N=C(C)Cn2c1nc1c2c(=O)n(CCC(C)C)c(=O)n1C | -12 | -12
COC(=O)CCC(=O)N1CCCC(Nc2ccc(C)c(C)c2)C1 (stereo not given) | 0 | 2
CCOC(=O)N1CCC(N2CCCC(CCC(=O)NCc3ccccc3Cl)C2)CC1 (stereo not given) | 13 | 6
CCCS(=O)(=O)N1CCC(c2nc(-c3ccc(C(F)(F)F)cc3)no2)CC1 | 19 | 6
CCCN(Cc1c(C)nn(-c2ccccc2)c1N1CCN(C)CC1)S(=O)(=O)c1cccc(C(F)(F)F)c1 | 6 | 18
Cc1ccc(Nc2ccc(N3CCN(S(=O)(=O)c4ccc(C)cc4)CC3)nn2)cc1 | 6 | 6
O=C1NC(=S)NC(=O)C1=Cc1cc(Cl)c(OCc2ccc(C(=O)O)cc2)c(Cl)c1 | -8 | -16
CS(=O)(=O)N1CCN(C(=O)C2CCNCC2)C[C@H]1C(=O)N[C@@H](CC1CCCCC1)C(N)=O | -7 | -9
Cc1ccccc1N1CCN(C(C)C(=O)NCc2cccs2)CC1 (stereo not given) | 2 | 2
(listing goes on)
SMILES | NPYLR7 agonist | NPYLR7 agonist max-min
CCn1c(=O)c2c(nc3n(C4CCCCC4)c(C)c(C)n23)n(C)c1=O | 2 | -2
O=C(c1coc(CN(Cc2cccc(F)c2)Cc2ccc3c(c2)OCO3)n1)N1CCOCC1 | 17 | 22
Cc1noc(CN(C)C(=O)C2CC(=O)N(CC(C)C)C2)n1 (stereo not given) | 9 | 5
O=C(NCc1ccc2c(c1)OCO2)C(C1CCCC1)N1CCN(C(=O)c2ccc(Cl)c(Cl)c2)CC1 (stereo not given) | -4 | -2
COc1ccc(C(NC(=O)c2ccc(C)s2)C2CC2)cc1 (stereo not given) | -4 | -5
COc1ccc(C2Nc3ccccc3C(=O)N2c2ccccc2)cc1CSc1nc2ccccc2s1 (stereo not given) | 6 | 4
O=c1c(C=NNc2ccccc2)c(Sc2nnnn2-c2ccccc2)nc2ccccn12 | 7 | 7
CC(C(=O)NC1CCCC1)S(=O)(=O)c1cn[nH]n1 (stereo not given) | 1 | 0
CNC(=O)c1ccc(Sc2nc3cc(F)c(F)cc3[nH]2)nn1 | 4 | 17
COc1cc(C=C(C#N)S(=O)(=O)c2ccc(F)cc2)cc(OC)c1O | 38 | 59
CCC(C(=O)N1CCN(CC(OCc2c(F)cccc2F)c2ccc(Cl)cc2)CC1)c1ccccc1 (stereo not given) | 7 | -1
Cc1oc(-c2cccc(C(F)(F)F)c2)nc1Cn1cc(CCO)cn1 | -4 | -9
COC(=O)COc1ccc(Br)cc1C=NNC(=O)COc1cccc2cccnc12 | 1 | 0
Cc1ccc(S(=O)(=O)NC(=O)C2(C)CCN2C(=O)c2cccc(F)c2)nc1 (stereo not given) | 2 | 1
CC(NC(=O)c1cccc(-n2cccn2)c1)c1nnc2n1CCNCC2 (stereo not given) | 2 | 1
O=C(Nc1cccc(Cl)c1)NC1CCN(c2ccccc2C(=O)NCc2cccc(F)c2)CC1 | 1 | 7
CCCc1ccc(-c2nccn2Cc2cccnc2)o1 | 9 | 6
CCC(C(=O)NC1CCN(c2ccccc2C(=O)N2CCN(c3ccccn3)CC2)CC1)c1ccccc1 (stereo not given) | -2 | 5
COc1ccc(S(=O)(=O)Oc2cccc(CN(C(=O)Nc3ccccc3OC)C3CC3)c2)cc1 | -4 | 3
Cc1nn(C)cc1C(=O)NCCN1CCOCC1 | 1 | -1
CCN(CC(=O)Nc1c(F)cccc1F)C(=O)c1cnc(C)cn1 | -6 | -6
CC(C)c1onc(C(=O)NC2CCCC2)c1[N+](=O)[O-] | 5 | 6
COc1ccc(Cl)cc1NS(=O)(=O)c1cc(Br)ccc1OC | 3 | 1
Cc1ccc(S(=O)(=O)NNC(=O)COc2ccc(Br)cc2)cc1 | -5 | -7

7 entries drawn at random from those above:
SMILES | NPYLR7 agonist | NPYLR7 agonist max-min
CCC(C(=O)NC1CCN(c2ccccc2C(=O)N2CCN(c3ccccn3)CC2)CC1)c1ccccc1 (stereo not given) | -2 | 5
CC(NC(=O)c1cccc(-n2cccn2)c1)c1nnc2n1CCNCC2 (stereo not given) | 2 | 1
Cc1ccc(S(=O)(=O)NC(=O)C2(C)CCN2C(=O)c2cccc(F)c2)nc1 (stereo not given) | 2 | 1
CCN(CC(=O)Nc1c(F)cccc1F)C(=O)c1cnc(C)cn1 | -6 | -6
COc1ccc(S(=O)(=O)Oc2cccc(CN(C(=O)Nc3ccccc3OC)C3CC3)c2)cc1 | -4 | 3
O=C(Nc1cccc(Cl)c1)NC1CCN(c2ccccc2C(=O)NCc2cccc(F)c2)CC1 | 1 | 7
CC(C)c1onc(C(=O)NC2CCCC2)c1[N+](=O)[O-] | 5 | 6

Further results
SMILES | NPYLR7 agonist | NPYLR7 agonist max-min
O=C(CCC1CCN(C2CCc3ccccc3C2)CC1)Nc1ccccc1Cl (stereo not given) | 0 | -5
COc1ccc(-c2nc(CN(C)C(C)c3nccs3)c(C)o2)cc1C (stereo not given) | 17 | 7
O=S(=O)(c1cccc(Cl)c1)N1CCN(c2nccc(-c3ccc4c(c3)OCO4)n2)CC1 | 2 | 1
COc1cccc(N2CCN(c3cc(Oc4ccccc4F)ncn3)CC2)c1 | -7 | 1
Cc1nc(-c2ccc(C(F)(F)F)cc2)nc(N2CCN(C(=O)c3cccc4ccccc34)CC2)c1C(C)C | 0 | 5
COc1ccc(CCN(C)[C@H]2[C@H](OC)C[C@@H]3CC(C)(C)OC[C@]32O)cc1OC | 2 | 8
CCSc1ccccc1C(=O)Nc1c2c(nn1CC(=O)NCCOC)CSC2 | -7 | -4
Cc1ccc(C(C2Sc3nc(C)nn3C2=O)N2CCN(Cc3ccccc3)CC2)cc1 (stereo not given) | 2 | -2
OCc1cc2cc(Cl)c(Cl)cc2[nH]1 | 5 | 4
O=C1NC(=Nc2ccccc2)S/C1=C/c1cc2c(cc1[N+](=O)[O-])OCO2 | 6 | 6
CN1CCCN(C(c2ccccc2)c2ccc(Cl)cc2)CC1 (stereo not given) | 1 | -3
CCSc1nc(NC(C)C)c2cnn(CCNC(=O)c3ccc(F)cc3)c2n1 | -2 | -4

Laid out differently: results already given.
Results follow in this order: NPYLR7 agonist, NPYLR7 agonist max-min
O=C1NC(=Nc2ccccc2)S/C1=C/c1cc2c(cc1[N+](=O)[O-])OCO2
 : 6, 6
Cc1nc(-c2ccc(C(F)(F)F)cc2)nc(N2CCN(C(=O)c3cccc4ccccc34)CC2)c1C(C)C
 : 0, 5
CCSc1ccccc1C(=O)Nc1c2c(nn1CC(=O)NCCOC)CSC2
 : -7, -4
COc1ccc(-c2nc(CN(C)C(C)c3nccs3)c(C)o2)cc1C (stereo not given)
 : 17, 7
O=S(=O)(c1cccc(Cl)c1)N1CCN(c2nccc(-c3ccc4c(c3)OCO4)n2)CC1
 : 2, 1

Next section
SMILES | NPYLR7 agonist | NPYLR7 agonist max-min
COc1cc(C)ccc1OCC(=O)N1CCN(c2ccc3nnc(C)n3n2)CC1 | 9 | 18
COc1ccc(O)c(/C=N\NC(=O)Cn2cnc([N+](=O)[O-])n2)c1 | -11 | -16
COc1ccc(OCC(=O)N=Nc2c(O)n(C)c3ccc(C)cc23)cc1 | -7 | -13
Cc1ccsc1CN(C)C(=O)CCN1CCCCO1 | 3 | 30
COC(=O)CCCC(=O)N1CCC(CCC(=O)Nc2cccc(OC)c2)CC1 | 15 | 9
O=C(NC(=S)NC1CC1)c1ccco1 | -4 | -5
Clc1cc(COc2ccc(-n3cnnn3)cc2)cc2c1OCCO2 | -1 | -2
N#CC1C(=N)SC(=N)C(C#N)C1c1cccs1 (stereo not given) | 27 | 22
CC(=O)N1CCC(N2CCC(C(O)CCc3ccccc3)CC2)CC1 (stereo not given) | 7 | 3
CCNC(=O)C1(C)CCN(C/C=C/c2ccccc2)C1 (stereo not given) | -1 | -1
O=S(=O)(c1ccc(Cl)c(C(F)(F)F)c1)N1CCc2sccc2C1 | 6 | 3
CCOC(=O)c1c(NC(=O)c2ccnn2C)sc(C)c1C | -5 | -12
COc1cccc(CSc2nnc(C(C)NC(=O)Nc3cccc(OC)c3)n2-c2ccc(C)cc2)c1 (stereo not given) | -1 | 1
CCC(=O)C1=C(c2ccccc2)N(C(=O)CC)n2c(Cc3ccc(OC)cc3)nnc2S1 | 5 | 1
